# Screening data as filed in PubChem.
# Ecoli rRNA inh – reduced GFP signal of wild-type E. coli, primary screen, bacterial rRNA inhibitor project, GFP/RFP fluorescence, OD600, single point; E. coli WT GFP vs humanized-ribosome RFP mutants, 24 h; stronger effect = lower value; DMSO median 0, no signal -100; GFP signal change (wild-type ribosome), % (no concentration beside the values); hit rate 1.6% among 350,000; AID 720706, 2013;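 active = significant combined selectivity score with lowered wild-type GFP, culture density cut under 30%, mutant RFP and density less affected; inactive = any of these conditions unmet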; note: one replicate is shown; some compounds called inactive have numbers as strong as hits
# Ecoli rRNA inh OD600 – further read-out of Ecoli rRNA inh, marked with its call; OD600 change, %; measured here: OD600 growth;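 optical density of the mix in the first replicate; 0 = DMSO median and -100 = no signal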
# Ecoli rRNA inh RFP – second read-out of Ecoli rRNA inh, no call of its own (marks repeat the call); RFP signal change, %; measured here: RFP humanized mutant strains;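 first replicate; 0 = DMSO median and -100 = no signal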
# Starred values were filed as active, the others as inactive.
Ecoli rRNA inh,Ecoli rRNA inh OD600,Ecoli rRNA inh RFP,compound
-1.1,5.5,-3.7,COc1ccccc1S(=O)(=O)N[C@@H]1CC[C@H](CC(=O)NCc2cc(F)cc(F)c2)O[C@@H]1CO
4.6,11.9,2.6,C[C@@H]1CN([C@@H](C)CO)C(=O)c2cc(C#Cc3ccccc3F)cnc2O[C@@H]1CN(C)S(=O)(=O)c1ccccc1
3.0,2.8,6.3,CO[C@@H]1CN(C)C(=O)c2cc(NS(=O)(=O)c3ccccc3F)ccc2OC[C@H](C)NC[C@H]1C
-3.4,-3.9,2.3,O=S(=O)(N[C@@H]1CC[C@H](CCn2cc(-c3cccc(F)c3)nn2)O[C@@H]1CO)c1ccccc1
2.9,-2.1,-0.2,CN1C(=O)c2cc(NC(=O)Nc3cccc(Cl)c3)ccc2OC[C@@H]2O[C@H](CC(=O)O)CC[C@H]21
4.4,5.8,0.8,COc1ccc(Cc2nc3ccc(C(=O)N4CCCCC4CO)cc3o2)cc1OC (stereo unspecified)
4.4,6.3,-3.2,C[C@H](O)C#Cc1ccc2c(c1)O[C@@H](CN(C)CC1CCOCC1)[C@@H](C)CN([C@H](C)CO)S2(=O)=O
-37.0,-67.2,-6.2,Clc1ccccc1-c1cnc2sc(NCc3ccc4c(c3)OCO4)nn12
1.9,-4.7,-1.2,C[C@@H]1CN([C@@H](C)CO)C(=O)Cc2cc(NC(=O)Cn3cnnn3)ccc2O[C@H]1CN(C)S(=O)(=O)c1ccccc1
-0.1,-2.0,-1.2,COc1ccccc1C(=O)Nc1ccc2c(c1)C(=O)N(C)C[C@@H](OC)[C@@H](C)CN(C)[C@@H](C)CO2
0.4,-11.6,6.5,CC1C=NC(S(=O)(=O)N2CC[C@@H]3[C@H]2c2cc(-c4ccccc4)ccc2N(C)[C@H]3CO)=N1 (stereo partly specified)
1.8,-5.0,3.3,CC(=O)N1C[C@@H]2[C@H](c3ccccc31)[C@H](CO)N2Cc1ccc(Cl)cc1
5.0,4.3,2.2,CCC(=O)N1C[C@@H](C)[C@@H](OC)CN(C)C(=O)c2cc(NC(=O)CC(F)(F)F)ccc2OC[C@H]1C
18.3,11.3,1.7,CN1CCC(N2CCN(C3CN(CCc4ccccc4)S(=O)(=O)C3)CC2)CC1 (stereo unspecified)
-1.9,1.2,2.3,CCNC(=O)C1(C)CCN(C(=O)c2ccc(OC)cc2OC)C1 (stereo unspecified)
0.9,-2.4,4.0,O=C(C[C@@H]1CC[C@@H](NC(=O)c2ccc(F)cc2)[C@@H](CO)O1)NCc1ccncn1
-1.0,-3.2,-4.3,CCCNC(=O)[C@H]1[C@H](CO)[C@H]2Cn3c(cccc3=O)[C@H]2N1C(=O)C1CCCC1
3.1,8.9,-0.4,CC(C)NC(=O)N1CC2(C1)[C@@H](c1ccccc1)[C@H](CO)N2C(=O)c1ccccn1
1.9,9.1,-2.5,C[C@@H]1CN([C@H](C)CO)C(=O)c2cc(-c3cccc(F)c3)cnc2O[C@@H]1CN(C)Cc1cccnc1
-2.5,1.4,-2.0,N#Cc1cccc(C(Br)S(=O)(=O)c2ccccc2)c1 (stereo unspecified)
8.8,11.8,-0.4,CC(C)CC1NC(=O)c2cccnc2-n2c1nc1ccccc1c2=O (stereo unspecified)
-2.9,-12.4,4.4,C[C@H]1CCCCO[C@@H](CN(C)Cc2ccc3c(c2)OCO3)[C@@H](C)CN([C@@H](C)CO)C(=O)c2cc(NC(=O)Cc3ccccc3)ccc2O1
5.8,14.3,-2.3,CN(C)C(=O)c1cccc(-c2ccc([C@@H]3[C@@H](CO)N4C(=O)CN(C(=O)Cc5ccccc5)C[C@H]34)cc2)c1
2.8,1.3,-1.1,CO[C@@H]1CC[C@@H]2CCOc3ccc(C#N)cc3C(=O)N(C)C[C@H](c3ccccc3)CC(=O)N(C)C[C@@H]1O2
-9.2,-45.5,4.2,COc1ccc(OC)c(C(O)c2ncc(-c3cccc4ccccc34)[nH]2)c1 (stereo unspecified)
-4.0,-13.4,2.1,CCC(=O)N1C[C@H](C)[C@H](OC)CN(C)C(=O)c2ccc(NC(=O)Nc3cccc(F)c3)cc2OC[C@@H]1C
-0.2,3.2,1.0,C[C@H]1CN([C@@H](C)CO)C(=O)c2cc(NC(=O)Nc3cccc4ccccc34)ccc2O[C@H]1CN(C)C(=O)Nc1ccc2c(c1)OCO2
-2.4,2.8,-3.3,C[C@@H]1CN([C@@H](C)CO)C(=O)Cc2cc(NC(=O)C3CC3)ccc2O[C@H]1CN(C)S(=O)(=O)c1ccc(F)cc1
2.5,7.4,-1.8,CC(C)NC(=O)N[C@H]1CC[C@@H](CC(=O)O)O[C@@H]1CO
4.2,2.6,-0.5,CC(O)(c1ccncc1)c1nc(-c2cccc(C(F)(F)F)c2)cs1 (stereo unspecified)
-7.9,-12.7,-1.8,C[C@H](CO)N1C[C@H](C)[C@H](CN(C)C(=O)Nc2ccc3c(c2)OCO3)Oc2ccc(NC(=O)Nc3ccc(F)cc3)cc2C1=O
-7.4,-17.9,5.5,O=C(Nc1cc(F)ccc1F)N[C@@H]1CC[C@@H](CCn2cc(C3CCCCC3)nn2)O[C@@H]1CO
-5.8,-6.0,-3.1,COc1cccc(-c2cnc3c(c2)C(=O)N([C@H](C)CO)C[C@@H](C)[C@@H](CN(C)Cc2ccc(F)cc2)O3)c1
-1.0,5.3,-4.5,C[C@@H]1CCCCO[C@H](CN(C)S(=O)(=O)c2ccc(F)cc2)[C@H](C)CN([C@@H](C)CO)C(=O)c2cc(NC(=O)Nc3ccc(C(F)(F)F)cc3)ccc2O1
3.0,-5.1,0.2,COCC(=O)N1[C@@H](C#N)[C@@H](c2ccccc2C2=CCCC2)[C@@H]1CO
3.5,1.6,0.2,Cc1ccc(S(=O)(=O)Nc2ccc3c(c2)C(=O)N([C@@H](C)CO)C[C@H](C)[C@@H](CN(C)C(=O)Nc2ccccc2)O3)cc1
-2.1,-26.4,3.4,CCCC#Cc1ccc([C@@H]2[C@H](CO)N3C(=O)CN(C(=O)Nc4cccc(F)c4)C[C@@H]23)cc1
-4.3,-1.1,6.0,Cc1ccc(S(=O)(=O)N(C)C[C@@H]2OCc3ccccc3-c3ccccc3C(=O)N([C@H](C)CO)C[C@@H]2C)cc1
-39.8,-69.5,-10.5,COc1ccc(C(c2nnnn2C(C)(C)C)N2CCN(C/C=C/c3ccccc3)CC2)cc1 (stereo unspecified)
-0.4,5.5,0.8,O=C(C[C@H]1C[C@@H]2c3cc(NC(=O)Nc4ccccc4)ccc3O[C@@H]2[C@@H](CO)O1)NCCN1CCCCC1
0.8,5.8,-1.4,COc1ccc2c3c(n(C)c2c1)[C@@H](CO)N(C(=O)c1cccc(F)c1)CC31CN(CC2CC2)C1
-10.3,-8.1,15.2,O=C1CSC(=S)N1N=Cc1cccc(OCc2ccccc2)c1
11.7,-10.2,-0.1,CC(C)(C)Cc1c(-c2ccc(Cl)cc2)nc2ccc(Br)cn12
1.3,4.5,-3.3,COc1ccc2c3c([nH]c2c1)[C@H](CO)N(C(=O)c1ccccn1)CC31CN(C(=O)C2CC2)C1
1.8,1.3,0.0,CO[C@H]1CN(C)C(=O)c2ccc(NC(=O)NC(C)C)cc2OC[C@@H](C)N(S(C)(=O)=O)C[C@@H]1C
4.2,6.9,-2.3,O=C(CN1CCOCC1)N[C@@H]1CC[C@@H](CCn2cc(C3CC3)nn2)O[C@H]1CO
2.3,1.1,3.5,CO[C@@H]1CN(C)C(=O)c2ccc(NC(C)=O)cc2OC[C@@H](C)N(C(=O)c2cccnc2)C[C@H]1C
-5.6,-8.2,1.1,CCCCNC(=O)C[C@@H]1C[C@@]2(C(=O)OC)CCCCC=C2N(Cc2ccc(Cl)cc2Cl)C1=O
2.2,-6.2,0.2,CNC[C@H]1Oc2c(NC(=O)c3ccc(-c4nccs4)cc3)cccc2C(=O)N([C@H](C)CO)C[C@H]1C
5.7,6.4,-2.3,CNC[C@H]1Oc2c(NC(=O)c3cc(C)nn3C)cccc2C(=O)N([C@H](C)CO)C[C@H]1C
-0.8,11.2,1.0,C[C@H]1CN([C@@H](C)CO)C(=O)Cc2cc(NC(=O)c3ccncc3)ccc2O[C@H]1CN(C)S(=O)(=O)c1ccc(F)cc1
-16.7,-3.5,1.8,COc1ccc(OCC(=O)N2CCc3ccccc32)c([N+](=O)[O-])c1
0.4,-2.7,-2.9,O=C(C[C@@H]1C[C@@H]2c3cc(NC(=O)C4CCC4)ccc3O[C@@H]2[C@H](CO)O1)NCc1cccnc1
0.8,-9.2,-1.4,CCCC(=O)Nc1ccc2c(c1)C(=O)N(C)C[C@@H](OC)[C@@H](C)CN(Cc1nccs1)[C@H](C)CO2
-1.0,-2.5,2.6,CO[C@@H]1CN(C)C(=O)c2cc(NC(=O)Nc3ccc(Cl)cc3)ccc2OC[C@H](C)N(C(=O)Nc2c(C)noc2C)C[C@@H]1C
-6.4,-12.9,-6.4,O=C(C[C@@H]1CC[C@@H]2[C@H](COC[C@@H](O)CN2Cc2ccc3c(c2)OCO3)O1)Nc1ccccc1
2.3,11.9,-1.0,CN(C)Cc1cn(CC[C@H]2CC[C@@H](NC(=O)Cc3cccnc3)[C@@H](CO)O2)nn1
-5.5,-2.6,1.0,C[C@H](CO)N1C[C@H](C)[C@H](CN(C)Cc2ccc(C(F)(F)F)cc2)Oc2c(NS(=O)(=O)c3cccs3)cccc2C1=O
0.7,-7.8,-5.4,O=C(c1cnccn1)N1CC(=O)N2[C@H](CO)[C@@H](c3ccc(-c4ccc(F)cc4)cc3)[C@H]2C1
-10.9,-19.4,8.8,Nc1[nH]c(C(=O)c2ccccc2)c(-c2ccc(F)cc2)c1C(=O)c1c[nH]c2ccccc12

# Some entries already given, reduced to Ecoli rRNA inh.
mol	Ecoli rRNA inh
C[C@H]1CN([C@@H](C)CO)C(=O)c2cc(NC(=O)Nc3cccc4ccccc34)ccc2O[C@H]1CN(C)C(=O)Nc1ccc2c(c1)OCO2	-0.2
O=C(c1cnccn1)N1CC(=O)N2[C@H](CO)[C@@H](c3ccc(-c4ccc(F)cc4)cc3)[C@H]2C1	0.7
CNC[C@H]1Oc2c(NC(=O)c3cc(C)nn3C)cccc2C(=O)N([C@H](C)CO)C[C@H]1C	5.7
CC(O)(c1ccncc1)c1nc(-c2cccc(C(F)(F)F)c2)cs1 (stereo unspecified)	4.2

# Next part
Ecoli rRNA inh,Ecoli rRNA inh OD600,Ecoli rRNA inh RFP,compound
-32.2,-38.1,-11.7,CC(O)(c1cccnc1)c1nc(-c2cccc(C(F)(F)F)c2)cs1 (stereo unspecified)
-15.5,-30.8,-7.4,COCC(=O)N(C)C[C@@H]1Oc2cc(C#CC3CC3)ccc2S(=O)(=O)N([C@H](C)CO)C[C@H]1C
-1.9,1.9,-2.8,CC(=O)N(C)C[C@@H]1Oc2ncc(-c3cccnc3)cc2C(=O)N([C@@H](C)CO)C[C@@H]1C
-3.1,-8.0,3.4,CO[C@@H]1CN(C)C(=O)c2cc(NC(=O)c3cnccn3)ccc2OC[C@H](C)N(CCc2ccccc2)C[C@H]1C
-5.5,15.2,-1.7,CS(=O)(=O)c1ccc(Cl)c(NC(=O)CSc2nnc3n2CCCCC3)c1
-2.6,-10.7,1.1,C[C@H](CO)N1C[C@H](C)[C@H](CN(C)C(=O)Nc2ccc(C(F)(F)F)cc2)Oc2c(NS(=O)(=O)c3ccccc3)cccc2C1=O
2.1,3.6,-0.7,C[C@H]1CN([C@@H](C)CO)C(=O)c2c(c3ccccc3n2C)-c2ccccc2CO[C@H]1CN(C)S(=O)(=O)Cc1ccccc1
-7.7,-35.5,-3.5,CC(C)NC(=O)Nc1cccc2c1O[C@@H](CN(C)Cc1ccc(Cl)c(Cl)c1)[C@H](C)CN([C@H](C)CO)C2=O
-0.5,0.9,0.6,O=C(C[C@H]1C=C[C@@H](NC(=O)C2CCC2)[C@H](CO)O1)NCC1CC1
1.7,10.2,-2.4,Cc1ccc(S(=O)(=O)N(C)C[C@@H]2OCCCC[C@H](C)Oc3ccc(NS(=O)(=O)c4ccc(Cl)cc4)cc3C(=O)N([C@H](C)CO)C[C@H]2C)cc1
0.9,5.0,0.1,CCCC#Cc1ccc2c(c1)O[C@H](CN(C)S(=O)(=O)c1cccc(OC)c1)[C@@H](C)CN([C@@H](C)CO)S2(=O)=O
2.2,5.8,-0.7,C[C@H](NC(=O)[C@@H]1N[C@@H]2c3ccc(-c4cncnc4)c(=O)n3C[C@@H]2[C@H]1CO)c1ccccc1

# The last three compounds of the part above are carried over, then new ones follow.
Ecoli rRNA inh,Ecoli rRNA inh OD600,Ecoli rRNA inh RFP,compound
1.7,10.2,-2.4,Cc1ccc(S(=O)(=O)N(C)C[C@@H]2OCCCC[C@H](C)Oc3ccc(NS(=O)(=O)c4ccc(Cl)cc4)cc3C(=O)N([C@H](C)CO)C[C@H]2C)cc1
0.9,5.0,0.1,CCCC#Cc1ccc2c(c1)O[C@H](CN(C)S(=O)(=O)c1cccc(OC)c1)[C@@H](C)CN([C@@H](C)CO)S2(=O)=O
2.2,5.8,-0.7,C[C@H](NC(=O)[C@@H]1N[C@@H]2c3ccc(-c4cncnc4)c(=O)n3C[C@@H]2[C@H]1CO)c1ccccc1
13.2,21.9,1.5,CCCCNC(=S)N(CCCO)Cc1cc2cc3c(cc2[nH]c1=O)OCO3
-3.3,-1.6,0.6,COc1ccc(NC(=O)N(C)C[C@H]2OCCCC[C@H](C)Oc3ccc(NC(=O)Cc4ccccc4)cc3C(=O)N([C@@H](C)CO)C[C@@H]2C)cc1
3.9,1.4,-0.9,O=C(C[C@@H]1CC[C@H](NS(=O)(=O)c2cccc(F)c2)[C@@H](CO)O1)N1CCCCC1
4.0,-4.1,-4.4,CC(C)NC(=O)N(C)C[C@H]1Oc2c(NS(=O)(=O)c3ccccc3)cccc2C(=O)N([C@H](C)CO)C[C@H]1C
3.2,1.4,0.1,C[C@@H]1CN([C@@H](C)CO)C(=O)c2cc(NC(=O)CCCN(C)C)ccc2O[C@@H](C)CCCCO[C@H]1CN(C)Cc1ccncc1
0.0,-2.4,0.2,CC(C)c1cn(CC[C@@H]2CC[C@H](NC(=O)C3CC3)[C@@H](CO)O2)nn1

# A portion of the library; count on the stated rates, not on these rows.
